Screens (PubChem BioAssay)
gsp agonist: gsp mutant agonism. gsp mutant cells, cAMP HTRF, 30 min; control for the full effect not named in the record. Potency, µM (doses to about 76.9 µM), inactives show at the top dose activation (cAMP increase), usual class: activators. 0.13% of 340,000 active; active = well fitted activation curve with a large enough effect; inconclusive = small, poorly fitted or top-dose-only effect, or another doubt; inactive = no such curve, though single readings can be large or run the other way; cell line not stated here;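 further: phosphodiesterase inhibitor Ro 20-1724 added with compounds to block cAMP breakdown; potency means the concentration at half of the fitted maximal effect; nearly all actives have a fitted effect of over 60% in size; about a fifth of the inactives were tested at one dose only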
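Cells stably selected in G418 were plated at 2000/well, grown 16-24 hr, then given compounds in DMSO with the PDE inhibitor […] (300 uM solution added) for 30 min at 37C; cAMP was read by HTRF.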
gsp antagonist: antagonists of gsp mutant (McCune-Albright syndrome); gsp-mutant cells, cAMP HTRF, 30 min; control for the full effect not named in the record; Potency, µM (top dose mostly 76.9 µM), for inactives: at the top dose activity change, negative = inhibition, actives largely listed as inhibitors; 0.4% of 340,000 active; active = falling curve of any shape with a large fitted effect; inconclusive = falling curve, mostly with a smaller effect; inactive = flat or rising curve; cell line not stated here;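 further: intracellular cAMP measured with PDE inhibitor Ro 20-1724 present during compound exposure; potency means the concentration at half of the fitted maximal effect; on the % scale 0 is the no-effect control and ±100 the full control effect; nearly all actives have a fitted effect of over 65% in size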
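Measurement of cellular cAMP by homogeneous time-resolved fluorescence following a 30 min compound exposure at 37C. The PDE inhibitor […] was present throughout; the assay buffer was DPBS with 0.05% BSA and 0.005% Tween 20.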
TRPV1 potentiator: potentiators of human vanilloid receptor 1 (TRPV1) | TRPV1-expressing cells, Fluo-8 calcium influx, capsaicin EC20 potentiation; host cell line not named in the record; control for the full effect not named in the record | potentiation, % at 8.33 µM | 0.02% of 320,000 active; active means potentiation above 80%; inconclusive means 30% to 80%; inactive means below 30%; further: 0% is about no effect
Target sequence (Q8NER1 whole entry, looked up): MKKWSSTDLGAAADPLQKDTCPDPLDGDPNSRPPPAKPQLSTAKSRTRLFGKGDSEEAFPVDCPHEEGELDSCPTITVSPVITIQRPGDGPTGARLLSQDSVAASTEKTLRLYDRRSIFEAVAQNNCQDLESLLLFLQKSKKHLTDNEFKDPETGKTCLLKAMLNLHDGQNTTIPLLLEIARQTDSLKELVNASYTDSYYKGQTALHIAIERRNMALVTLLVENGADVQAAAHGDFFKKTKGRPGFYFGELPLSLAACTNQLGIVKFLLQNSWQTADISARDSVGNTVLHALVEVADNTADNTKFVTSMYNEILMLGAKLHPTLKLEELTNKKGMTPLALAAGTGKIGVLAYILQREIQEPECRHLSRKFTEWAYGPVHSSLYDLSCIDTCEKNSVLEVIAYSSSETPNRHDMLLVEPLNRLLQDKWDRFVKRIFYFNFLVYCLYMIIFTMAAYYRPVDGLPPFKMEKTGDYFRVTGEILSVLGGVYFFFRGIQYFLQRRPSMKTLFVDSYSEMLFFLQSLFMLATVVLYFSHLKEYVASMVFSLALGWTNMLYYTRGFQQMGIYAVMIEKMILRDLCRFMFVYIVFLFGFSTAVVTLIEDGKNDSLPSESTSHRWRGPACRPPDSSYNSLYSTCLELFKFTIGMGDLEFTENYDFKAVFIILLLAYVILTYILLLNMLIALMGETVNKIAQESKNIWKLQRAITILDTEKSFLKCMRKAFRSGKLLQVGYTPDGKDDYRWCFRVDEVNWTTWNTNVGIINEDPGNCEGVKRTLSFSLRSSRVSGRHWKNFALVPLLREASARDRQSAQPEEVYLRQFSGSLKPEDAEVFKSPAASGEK
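TRPV1-expressing cells were cultured overnight at 35.5C and loaded with Fluo-8 calcium dye for 40 to 90 min at room temperature. After a 10 s baseline, compound was added and calcium influx was read kinetically for 3 min (ex 480/em 520 nm).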
ClpP mod: qHTS Assay for Activators of ClpP; ATP-dependent Clp protease proteolytic subunit (Bacillus subtilis (strain 168)), P80244; purified B. subtilis ClpP, FRET peptide cleavage, 20 min; Potency, µM (titrated, usually from 57.5 µM), inactives show at the top dose activity change, negative = active; 1.9% of 340,000 active; active = well fitted falling curve with a large enough effect; inconclusive = small, poorly fitted or top-dose-only effect; inactive = no such curve, though single readings can be large or run the other way; further: potency means the concentration at half of the fitted maximal effect; the source files actives as falling curves though it sought activators and does not explain the sign; nearly all actives have a fitted effect of over 65% in size; many hits overshoot -100%
Target sequence (P80244 whole entry, looked up): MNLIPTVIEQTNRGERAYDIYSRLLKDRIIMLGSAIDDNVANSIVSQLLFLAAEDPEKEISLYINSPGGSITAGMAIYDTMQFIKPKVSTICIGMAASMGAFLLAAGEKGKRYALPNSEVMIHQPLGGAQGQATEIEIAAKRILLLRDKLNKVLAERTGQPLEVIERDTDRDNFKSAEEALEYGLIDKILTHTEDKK
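FRET quenching reversal measured ClpP activation: 10 microg/mL B. subtilis ClpP at pH 8 with the FRET-FV decapeptide, read at 430 nm after 320 nm excitation. The 20-min minus 0-min signal was scaled between DMSO/no-enzyme wells and ADEP (5.8 microM final).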
Sfp PPTase inh: Sfp phosphopantetheinyl transferase inhibition; Q9F4F7; Biochemical Sfp PPTase activity, qHTS; Potency, µM, without a hit: max response, negative = inhibition, most hits filed as inhibitors; 3.5% of 310,000 active; AID 1490; active means well fitted inhibition curve with a large enough effect; inconclusive means small, poorly fitted or top-dose-only effect, or another doubt; inactive means no such curve, though single readings can be large or run the other way;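 further: the enzyme is Sfp with the accession as filed and its product quenches rhodamine fluorescence; potency means the concentration at half of the fitted maximal effect; 0% = enzyme reaction without inhibitor and -100% = no enzyme wells; top concentration of the series not given in the record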
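Fluorescence-quenching assay: 15 nM Sfp-PPTase preincubated 15 min at room temperature with compound, then 5 uM rhodamine-CoA and 12.5 uM BHQ-2-labelled YbbR peptide added. Fluorescence (ex 525/em 598 nm) read at start and after 30 min; difference gives rate.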
CtBP-E1A inh: CtBP/E1A binding inhibition. AlphaScreen GST-E1A/His-CtBP binding, 1536-well; stronger effect = lower value; control for the full effect not named in the record. activity change, % (concentration not given with the values). 0.49% of 340,000 active. AID 651724; in the data active means activity change below about -65%; inconclusive means about -30% to -65%; inactive means above about -30%; further: on the % scale 0 is the no-effect control and ±100 the full control effect
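In 5 uL wells, 23 nL compound meets equimolar GST-E1A and His-CtBP (5X stock 125 nM each) for 2 h, 37 °C. Beads (5X, 50 ug/mL) then 1 h, 37 °C, dark.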
Menin MLL FP FL: displaces fluorescein MLL peptide from human menin | AID 1766 | 290,000 tested, under 10 active | Fluorescence polarization, fluorescein-MLL peptide displacement from menin | FP activity change, % at 61.4 µM; inconclusive = falling polarisation curve, or a change in total fluorescence; inactive = total fluorescence flat and polarisation flat or rising; no compound was filed as active; the % refers to the polarisation; negative = inhibition;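 further: % of control where 0% means no effect; inhibitors lower the polarisation; unlabelled MLL peptide was the positive control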
An asterisk follows results filed as active; u = inconclusive; x = not tested or not shown; & = joins results of further samples; [ ] = dose if it differs, or a comment.

nr	smiles	Menin MLL FP FL	ClpP mod	gsp agonist	Sfp PPTase inh	CtBP-E1A inh	TRPV1 potentiator	gsp antagonist
1	Cc1c(C(C)CCCO)oc(=O)c2c1Oc1c(C)c(C(C)C[C@H](C)O)oc(=O)c1C2 (some centres not stated)	x	-6.8%	19%	x	-8	11	-22%
2	CCCCCCC1CC(CC(=O)Nc2ccc([N+](=O)[O-])cc2)C(=O)O1 (configuration not stated)	5.7	3.7%	13%[15.4 µM]	22%	-2	-12	2%
3	COc1cc2c(C(=O)NCCCOC(C)C)cn(CC(C)C)c(=O)c2cc1OC	-8.3	-23%	-18%	-6%	2	15	-10%
4	O=C(/C=C/c1ccccc1)C1=C(O)C(=O)N(CCO)C1c1ccccc1[N+](=O)[O-] (configuration not stated)	2.6	x	-7%[15.4 µM]	u	-1	5	-2%
5	COC(=O)C1SCC2C(=O)N(Cc3cccc(C)c3)CC(=O)N21 (configuration not stated)	0.4	-0.3%	-10%	12%	x	3	-2%
6	O=C(NCc1ccccc1)C(=O)Nc1nc(C23CC4CC(CC(C4)C2)C3)cs1	3.0	-5.7%	-2%[15.4 µM]	11%	-2	-4	-8%
7	COc1ccc(NC(=S)N2CCN(CCN3C(=O)c4cccc5cccc(c45)C3=O)CC2)cc1	-1.1	-4.2%	21%[15.4 µM]	10%	6	10	-8%
8	COc1cc2c(cc1OC)C(c1cccc([N+](=O)[O-])c1)N(C(=O)CCC(=O)O)CC2 (configuration not stated)	4.1	-3.3%	-3%	30%[activator]	x	6	-2%
9	CCCCN(CC)CCCNC(=O)CN1C(=O)CSc2ccc(S(=O)(=O)N3CCOCC3)cc21	-13	-2.2%&2.4%	-10%	7%	x	-2	10%
10	COc1cccc(C=Nc2ccc3c(c2)OCCO3)c1O	3.2	-0.3%	9%[15.4 µM]	-19%	-6	u	-13%
11	COc1cccc(-n2cc(C(=O)NC(C)C)c3ccccc3c2=O)c1	-0.9	-0.9%	3%[15.4 µM]	3%	13	18	-11%
12	CC(=O)Nc1ccc(S(=O)(=O)NCCC(=O)NCC2COc3ccccc3O2)cc1 (configuration not stated)	x	1.0%	-4%	10%	2	2	6%
13	O=C(CSc1nc(-c2ccccc2)nc2ccc(F)cc12)Nc1ccc(C(=O)O)cc1	4.5	x	u	-3%	-20	-3	-32%
14	CCOC(=O)CNc1ccc(C(=O)OCC)cc1[N+](=O)[O-]	14	-1.7%	7%	-15%	-10	17	13%
15	O=[N+]([O-])c1c(NCCCO)cc(N2CCN(Cc3ccc4c(c3)OCO4)CC2)c2nonc12	4.4	0.9%	-13%	0%	-15	-4	-19%
16	O=C1NC(=O)C(CC(=O)N(Cc2ccco2)C2(C(=O)NC3CCCC3)CCCCC2)N1 (configuration not stated)	-0.5	-0.4%	u	3%	1	2	-3%
17	O=C(Nc1ccc(F)cc1F)Nc1sccc1-c1nc2ccccc2s1	2.6	-13%	2%	-11%	x	27	-14%
18	O=C1CC(c2cc([N+](=O)[O-])ccc2Cl)c2c(ccc3ccccc23)N1 (configuration not stated)	4.0	1.1%	11%	-2%	2	13	11%
19	CC/C(=N/NS(=O)(=O)c1ccc(Cl)cc1)c1ccc(O)cc1	0.1	-0.4%	-6%	8%	-5	1	2%
20	CCC(C)[C@H](NC(=O)NCc1cccnc1)C(=O)OC (some centres not stated)	1.3	-0.2%	-10%	11%	x	25	10%
21	Cc1ccc(C(=O)NCC(=O)OCC(=O)NC(C)C2CC3CCC2C3)cc1 (configuration not stated)	x	32µM*	-42%[inhibitor]	x	0	12	-1%
22	CCN(CC(=O)Nc1cccc(C#N)c1)CC(=O)Nc1cccc(OC)c1	-2.9	x	10%[15.4 µM]	9%	4	0	-10%
23	COc1ccc(CN2CC34C=CC(O3)C(C(=O)O)C4C2=O)cc1 (configuration not stated)	1.6	-0.2%	5%	22%	6	1	5%
24	COc1ccc(C2=NOC(C(=O)N3CCCc4ccccc43)C2)cc1 (configuration not stated)	0.7	-0.7%	11%	4%	11	28	-21%
25	COc1cccc(CNC(=O)C2CC(=O)N(C3CCCCC3)C2)c1 (configuration not stated)	3.9	0.6%	-17%	8%	-5	-9	16%

More compounds
nr	smiles	Menin MLL FP FL	ClpP mod	gsp agonist	Sfp PPTase inh	CtBP-E1A inh	TRPV1 potentiator	gsp antagonist
26	COc1cc(NC(=O)c2cc3nc(-c4ccccc4)cc(-c4ccccc4)n3n2)cc(OC)c1OC	4.2	-13%	-7%	14%	-4	-1	-3%
27	O=[N+]([O-])c1cccc(S(=O)(=O)Nc2ccc3cn[nH]c3c2)c1	x	-2.6%	2%	x	-18	x	-1%
28	Cc1ccc(C)c(N2CCN(C(=O)c3ccccc3Br)CC2)c1	0.7	-1.1%	3%	14%	-3	23	-28%
29	O=C(c1ccco1)N1CCN(C(=O)N2c3ccccc3Sc3ccccc32)CC1	5.4	0.0%	26%	5%	11	11	12%
30	C[C@H](CO)N1C[C@H](C)[C@@H](CN(C)C(=O)NC2CCCCC2)Oc2ccc(NS(=O)(=O)c3ccc(F)cc3)cc2C1=O	x	0.1%	0%	x	3	x	-1%
31	CC(=O)Oc1ccc(N2C(=O)CCC2=O)cc1	2.6	0.0%	-3%	8%	3	-19	0%
32	CCOc1ccc(CCNC(=O)CCN2C(=O)COc3ccccc32)cc1OCC	0.8	0.2%	-35%[inhibitor]	0%	2	2	0%
33	CC1CN(C(=O)COC(=O)CSc2ccc([N+](=O)[O-])cc2)CC(C)O1 (configuration not stated)	x	-0.5%	-30%	x	8	8	-10%
34	CCC1=Nc2cc(C(=O)NCCN3CCCC3)ccc2Sc2ccccc21	1.3	3.2%	-2%	-5%	x	16	1%
35	O=C(COc1ccccc1C(=O)N/N=C\c1ccc(O)c(O)c1)N/N=C/c1ccc(O)c(O)c1	4.0	-2.3%	-19%	u	-77*	17	-17%
36	CC(C)(C)c1cc(NC(=O)COC(=O)c2ccccc2)n(-c2ccccc2)n1	x	-4.2%	24%	x	-4	x	x
37	COc1cccc(CC(=O)Nc2nc(-c3cccnc3)cs2)c1	15	x	-9%[15.4 µM]	7%	-5	-5	3%
38	CCC(C)(C)n1nnnc1C(c1cccs1)N1CCN(c2nc3ccccc3s2)CC1 (configuration not stated)	-0.5	-0.9%	-5%	-5%	-1	11	-17%
39	C/C(=N\NC(=O)COc1ccccc1-c1ccccc1)c1ccc(O)cc1O	-2.1	-0.6%	-26%	18%	x	-2	u
40	COc1ccc(-c2ccc(C#N)c(SCC(=O)OCc3ccccc3)n2)cc1OC	3.2	u	-4%	-1%	46	12	-1%
41	O=C1CCCC(=O)N1c1ccc(N2CCOCC2)c([N+](=O)[O-])c1	4.3	x	-10%[15.4 µM]	17%	5	0	9%
42	CC(C)CC(c1nnnn1Cc1ccco1)N1CCN(C2CCCC2)CC1 (configuration not stated)	-25	0.5%	9%	3%	3	2	8%
43	CN(C)c1ccc(C(CNC(=O)c2cccs2)N(C)C)cc1 (configuration not stated)	-2.5	-2.3%	-27%	8%	x	-6	-7%
44	COC(=O)CSc1nnc(Cc2ccccc2)n1-c1ccc(C)cc1	-1.7	0.1%	-43%[inhibitor]	-7%	2	5	-11%
45	CCCNC(=O)COc1ncnc2sccc12	0.0	x	-1%[15.4 µM]	28%	0	-2	-4%
46	O=C(NCc1ccc(F)cc1)c1cc2n(n1)C(C(F)(F)F)CC(C1CC1)N2 (configuration not stated)	5.3	0.0%	-5%	12%	1	x	-2%
47	COc1cccc2c1OC1(C)CC2NC(=O)N1Cc1ccccc1 (configuration not stated)	-2.4	1.0%	-12%	-1%	0	-2	14%
48	CN(C)CCNC(=O)Nc1ccc(Cl)c(Cl)c1	-4.7	-0.3%	26%	-4%	1	22	3%
49	Cc1ccc(OCCC(=O)OCC(=O)Nc2ccc(C)c(S(=O)(=O)N3CCOCC3)c2)cc1	x	-3.2%	13%	x	-12	x	1%
50	COc1ccc(O)c(CN2CCN(C/C=C/c3ccccc3)CC2)c1	0.3	-1.1%	-13%	-16%	-30	-2	12%

Later entries:
nr	smiles	Menin MLL FP FL	ClpP mod	gsp agonist	Sfp PPTase inh	CtBP-E1A inh	TRPV1 potentiator	gsp antagonist
51	Cn1cc(C(=O)NCC2COc3ccccc3O2)c(=O)c2cc(S(=O)(=O)N3CCCCC3)ccc21 (configuration not stated)	5.9	-1.7%	-63%[inhibitor]	-4%	-10	2	-4%
52	CCOC(=O)c1ccc(NC(=S)N(CCCN2CCN(CC)CC2)Cc2cccs2)cc1	2.6	x	6%	19%	-3	-1	4%
53	O=C(Nc1cccc(S(=O)(=O)N2CCCC2)c1)c1cc(=O)[nH]c2ccccc12	x	-8.4%	13%	x	0	1	4%
54	CC(C)C(C(=O)OCC(=O)c1ccccc1)N1C(=O)C2C3C=CC(C3)C2C1=O (configuration not stated)	-4.8	0.0%	u	7%	7	-2	-5%
55	CCCN(CCC)c1ccc(C(O)c2nnc(-c3ccccc3)o2)cc1 (configuration not stated)	0.9	0.5%	u	-2%	5	4	7%
56	COC(=O)C1CCN(C(=O)NC(C)(C)C)CC1	0.4	0.8%	-2%[15.4 µM]	12%	4	-11	4%
57	C[C@@H]1Cn2cnc(C(=O)NCc3ccc(CNC(=O)OC(C)(C)C)cc3)c2C(=O)N1	x	-1.8%	-12%	x	0	x	x
58	COc1cccc(-c2nn(-c3ccccc3)cc2CN(C)Cc2ccon2)c1	1.7	-2.6%&-4.1%	26%	2%	x	-10	-31%
59	Oc1[nH]c2ccc(Br)cc2c1N=Nc1nn[nH]n1	5.2	1.4%	17%	-2%	x	3	-7%
60	Cc1ccccc1NC(=O)CSc1nc2ccccc2c2nc(CCn3cncc3C)nn12	0.0	u	-1%	-7%	0	0	1%
61	O=C(NC1CCCCCCC1)c1ccc(F)cc1	2.8	x	1%	0%	8	-27	-1%
62	Cc1ccc2cc(C#N)c(NCc3ccccc3)nc2c1	-0.2	x	28%[15.4 µM]	20%	18	4	-12%
63	O=C(NCC1c2ccccc2CCN1C(=O)CN1CCOCC1)C1CCCCC1 (configuration not stated)	0.2	-2.5%	-18%	16%	-5	7	-5%
64	N#CC(C(=O)NCCc1ccccc1)c1nc2ccccc2nc1N1CCCCC1 (configuration not stated)	2.8	-3.1%	-4%	14%	-3	0	-11%
